From PubChem BioAssay
StopGo RLuc – Primary qHTS Assay for Foot and Mouth Disease Virus Antivirals against NCGC Sytravon and CBC Compound Libraries: Renilla Luciferase Signal | HEK cells with a luciferase reporter of 2A StopGo recoding | Potency, µM (highest dose often 57.5 µM), without a hit: at the highest dose signal change, negative = less light | 120,000 compounds, 0.32% hits | AID 1745857, 2022; active means well fitted falling curve with a large enough effect; inconclusive means small, poorly fitted or top-dose-only effect; inactive means no such curve, though single readings can be large or run the other way; further: nearly all actives have a fitted effect of over 55% in size; overnight with compound
2A firefly – Primary qHTS Assay for Foot and Mouth Disease Virus Antivirals against NCGC Sytravon and CBC Compound Libraries: Firefly Luciferase Signal. HEK cells with a luciferase reporter of 2A StopGo recoding. Potency, µM (top dose mostly 57.5 µM), without a hit: top-dose signal change, negative = less light. 120,000 compounds, 0.23% hits; active = well fitted falling curve with a large enough effect; inconclusive = small, poorly fitted or top-dose-only effect; inactive = no such curve, though single readings can be large or run the other way; further: nearly all actives have a fitted effect of over 60% in size; overnight with compound
Active calls of the source: *; ? = inconclusive; & = joins results of further samples; [ ] = dose if it differs, or a comment. On the % scale 0 is the no-effect control and ±100 the full control effect; potency means the concentration at half of the fitted maximal effect. This is a subset, so the mix of outcomes need not match the whole.

Values run as follows: StopGo RLuc	2A firefly
> COc1c(CNCC(O)COc2c(C)cccc2C)c(C)nn1C (configuration not stated)
 : 0%	-3%
> CCCC(=O)N1CCCN(C(C)C(=O)Nc2ccc(C)c(F)c2)CC1 (configuration not stated)
 : 10%	19%
> COc1ccc(C(=O)Oc2ccc3c(=O)c(-c4ccc(OC)c(OC)c4)c(C)oc3c2)cc1OC
 : -4%	-2%
> COC(=O)c1cc(S(=O)(=O)N2CCN(c3cc(Cl)ccc3C)CC2)c[nH]1
 : -4%	-19%
> CCc1nn(CC(=O)N2CCN(c3cccc(C)c3)C(C)C2)c(=O)c2cc3sccc3n12 (configuration not stated)
 : -6%	-5%
> CC(CN(CCN(C)C)Cc1ccccc1)c1ccccc1 (configuration not stated)
 : -8%	-11%
> Cc1nc2cc(NS(=O)(=O)c3ccc(C)c(C)c3)ccc2o1
 : 245%[activator]	-1%
> COC(=O)c1c(NC(=O)CCCOc2ccccc2)sc2c1CCC(C)C2 (configuration not stated)
 : -4%	-1%
> COc1cccc(C(=O)Nc2nc3nc(C)c(Cc4ccccc4)c(=O)n3[nH]2)c1
 : -6%	7%
> CCOc1ccc(C(=O)N2CCN(c3nc4sc5c(c4c(=O)n3C)CCCC5)CC2)cc1
 : 14%	16%
> CCOC(=O)c1[nH]c2c(c1Cc1ccccc1)C(=O)CC(c1ccccc1)C2 (configuration not stated)
 : 138%&-5%[activator]	0%&0%
> CS(=O)(=O)c1ccc(NC(=O)CN(Cc2cccs2)CC2CCCO2)cc1 (configuration not stated)
 : 5%	-10%
> O=C(NCC(c1cccnc1)N1CCN(c2ccccc2F)CC1)C(=O)Nc1ccc(F)cc1F (configuration not stated)
 : 0%	0%
> O=C(CSc1n[nH]c(-c2ccncc2)n1)Nc1cccc(C(F)(F)F)c1
 : 7%	16%
> NNc1ccc(F)cc1F
 : 13%[1.06 µM]	?
> CN(C)C(=O)CN1CCN(C(C(=O)O)c2c[nH]c3ccc(OCC#N)cc23)CC1 (configuration not stated)
 : -18%	-6%
> CCCNC(=O)CCCNC(=O)c1ccc(Cl)cc1
 : 8%	6%
> O=C1Cc2cc(-c3csc(Nc4ccccc4Cl)n3)ccc2N1
 : 13%	91%[activator]
> Cc1cccc(CNC(=O)C2CCN(c3nc4ccc(Cl)cc4[nH]3)CC2)c1
 : -14%	-11%
> COc1ccc2c(c1)CN1C(=O)N(C3CCCC3)S(=O)(=O)CC21 (configuration not stated)
 : 158%[activator]	173%[activator]
> COc1ccc(C(=O)c2sc(Nc3ccccc3)c(C(N)=O)c2N)cc1
 : 0%	70%[activator]
> Cc1ccc(C)c(Cn2c(=O)n(Cc3ccco3)c(=O)c3oc4ccccc4c32)c1
 : -9%	-6%
> COc1ccc(C(=O)N2CCN(C(=O)Cc3ccccc3)CC2)cc1OC
 : 6%	0%
> O=c1oc2ccccc2c(NCC2CCCCC2)c1NS(=O)(=O)c1ccc(Cl)cc1
 : 8%	-14%
> CCCC12CN3CC(CCC)(CN(C1)C(=O)c1ccccc1C3=O)C2=O
 : -4%	-8%
> Cc1cc(Br)ccc1NC(=O)C1CCN(S(=O)(=O)c2cccc3nsnc23)CC1
 : -10%	-19%
> COc1cc(Nc2nc(SCc3ccccc3Cl)nc3ccccc23)cc(OC)c1
 : -8%	-5%
> O=C(CC(=O)c1ccccc1O)c1ccc(Cl)cc1
 : -7%	0%
> CCOc1ccc(CCNC(=O)CCCn2nc(C)c3sc4ccccc4c3c2=O)cc1
 : 46%[activator]	0%
> O=C(NCCc1c[nH]c2ccc(Cl)cc12)c1ccccc1F
 : 37%[activator]	37%[activator]

Continued:
Values run as follows: StopGo RLuc	2A firefly
> Cc1ccccc1C(=O)NCc1ccco1
 : -1%	7%
> COCc1nnc(NC(=O)c2ccc3ccn(C)c3c2)s1
 : 53%[activator]	105%[activator]
> CCCC1CCC(c2ccc(-c3ccc(CC)cn3)cc2F)CC1 (configuration not stated)
 : -3%[1.06 µM]	0%
> S=C(N/N=C/c1ccccc1Br)Nc1ccccc1
 : 30%[activator]	27%
> CCc1nc2c(cnn2-c2ccc(Cl)cc2)c(=O)n1-c1ccc(C)cc1
 : 5%	19%
> CCCc1nc(C)c2c(=O)[nH]c(-c3cc(S(=O)(=O)N4CCN(CC)CC4)ccc3OCC)nn12
 : 45%[activator]	-4%[11.5 µM]
> CC(C)(C)c1ccc(S(=O)(=O)NCc2ccc3c(c2)CCN3C(=O)c2ccccc2)cc1
 : -28%	?
> CCCn1nnc(NC(=O)COc2ccc(C(C)CC)cc2)n1 (configuration not stated)
 : -16%	-12%
> COc1ccc(-c2cc(C(F)(F)F)n3nc(C(=O)NCC45CC6CC(CC(C6)C4)C5)cc3n2)cc1OC
 : -8%	-7%
> CCOC(=O)C1=C(C(F)(F)F)Nc2ncnn2C1c1cccc(OC)c1OC (configuration not stated)
 : -5%	-21%
> CCOC(=O)c1nc2ccccc2nc1NCc1ccccc1OC
 : 9%	-6%
> COc1ccc(CC(=O)N2CCc3cc(OC)c(OC)cc3C2COc2ccc(F)cc2)cc1OC (configuration not stated)
 : 19%	5%
> Cc1cnc2c(S(=O)(=O)N3CCNCC3)cccc2c1
 : -7%	-2%
> Cc1ccc(CSc2nc3ccccc3c3nc(CCn4c(C)nc5ccccc54)nn23)cc1
 : -3%	-14%
> COc1ccccc1NC(=O)Nc1nnc(CC(=O)Nc2ccccc2)s1
 : -4%	6%
> CCOC(=O)c1c(C)oc2ccc(N(C(=O)Oc3ccccc3)S(=O)(=O)c3ccccc3)cc12
 : 17%	-13%
> CCOc1ccc(-c2nc(C#N)c(NCC(C)C)o2)cc1
 : 0%	44%[activator]
> O=C(COC(=O)c1ccc(O)cc1)c1ccc(NC(=O)c2ccco2)cc1
 : -8%	78%[activator]
> Cc1ccc(NC(=O)NCc2cccn2Cc2ccccc2)c(C)c1
 : -8%	-15%
> Cn1c(=O)n(C)c2cc(NS(=O)(=O)c3ccc(F)cc3)c(NCc3ccccc3)cc21
 : 231%[activator]	350%[activator]
> CC(C)(C)c1ccc(-c2nc(SCCOc3ccc(Cl)cc3)n3[nH]c(=O)cc3n2)cc1
 : -8%	-6%
> CCOC(=O)c1cccc(NC(=O)C(Cc2ccccc2)NS(=O)(=O)c2cccc3nsnc23)c1 (configuration not stated)
 : 62%[activator]	-29%
> CCOC(=O)C1=C(C)NC(=O)NC1c1cn(-c2ccccc2)nc1-c1ccc(OC(C)C)cc1 (configuration not stated)
 : ?	?
> CCn1c(CSc2n[nH]c(-c3ccccc3)n2)nc2cc(S(=O)(=O)N3CCOCC3)ccc21
 : 33%[activator]	-1%
> COc1cc(CNC(=O)c2sc3ncccc3c2-n2cccc2)cc(OC)c1OC
 : ?	?
> O=C(Nc1cccc(C(F)(F)F)c1)c1cc(-c2ccc(Cl)cc2)on1
 : 11%	0%
> CCOc1cc2cc(C(=O)c3ccccc3O)cnc2cc1OC
 : 15%	42%[activator]
> Cc1ccc(NC(=O)Cn2nc(-c3ccccc3)nc(Cc3ccccc3)c2=O)cc1
 : -13%	-22%
> CCOc1ccc(C(=O)CCC(=O)OCC(=O)c2ccccc2Br)cc1
 : 2%	-5%
> CCOC(=O)c1cccc(NC(=O)N2CC=C(c3c[nH]c4ccccc34)CC2)c1
 : -9%	53%[activator]

Further compounds follow:
Values run as follows: StopGo RLuc	2A firefly
> Cc1ccc(Cc2c(C)[nH]c3nc4ccccc4n3c2=O)cc1
 : 5%	11%
> COc1cccc(C(=O)/C(C#N)=C\c2ccc(OC(F)F)c(OC)c2)c1
 : -5%	11%
> O=c1ccc2cc(S(=O)(=O)Oc3ccc4c(=O)c(-c5ccccc5)coc4c3)ccc2o1
 : -12%[1.06 µM]	0%
> Cc1ccc(S(=O)(=O)N2CCC(c3ccncc3)CC2)c(C)c1
 : ?	?
> CC(C)C(=O)NC(Nc1ccccc1Cl)C(Cl)(Cl)Cl (configuration not stated)
 : -1%	-7%
> CCOc1cccc2sc(NC(=O)c3ccc(S(=O)(=O)N4CCCc5ccccc54)cc3)nc12
 : -11%	-15%
> O=C(Nc1cccc(-c2nnnn2C2CC2)c1)C1CC=CCC1 (configuration not stated)
 : -67%	23%
> CN(CC(=O)Nc1ccc(F)c(F)c1)S(=O)(=O)Cc1ccccc1C#N
 : 97%[activator]	11%
> Fc1ccc(CCNC(=S)NC2CC2)cc1
 : 1%	0%
> CCCCC(O)/C=C(C)/C=C/C=C/C(=O)N1CCCC1=O (configuration not stated)
 : -7%	-15%
> CSc1ccc(C(C)NC(=O)C2CC=CCC2)cc1 (configuration not stated)
 : 0%	18%
> CCC(C)NC(=O)COC(=O)c1ccc2nc(C)c(C)nc2c1 (configuration not stated)
 : -13%	1%
> C=C(C)CSc1nc2c(c(=O)n(C)c(=O)n2C)n1Cc1ccccc1Cl
 : -11%	-10%
> CCN(CC)CCCNC(=O)c1cc2cc(Cl)ccc2[nH]1
 : -23%	-15%
> COc1ccc(NC(=O)Cc2cccc3ccccc23)c2cccnc12
 : ?	?
> O=[N+]([O-])c1ccc(NCCOc2cccc3ccccc23)c2ncccc12
 : -7%	-4%
> COc1ccc2oc(-c3ccc(C)c(NC(=O)c4cccnc4)c3)nc2c1
 : -17%	9%
> O=C(Cn1c(-c2cccs2)cc2ccccc21)NCCCN1CCN(c2cccc(Cl)c2)CC1
 : 0%	-11%
> CN1CCN(c2ccc(-c3nc(-c4ccccc4)no3)cc2[N+](=O)[O-])CC1
 : 7%	-8%
> O=c1cc(-c2ccccc2)[se]c2ccccc12
 : 74%[activator]	308%[activator]
> CC(=O)Oc1cc(C(C)C)c(OCCN(C)C)cc1C
 : -7%	-7%
> O=C1CC(c2nc(-c3ccccc3)no2)CN1c1ccccc1 (configuration not stated)
 : 12%	15%
> COCCNC(=O)C(=O)NCC(c1cccnc1)N1CCN(c2ccccc2)CC1 (configuration not stated)
 : 15%	9%
> COc1ccc(S(=O)(=O)Nc2nc3ccccc3nc2Nc2ccc(OC)cc2OC)cc1
 : 1%	-11%
> Cc1ccc(Cl)cc1NC(=O)c1cc(=O)[nH]c2ccc(S(=O)(=O)N3CCOCC3)cc12
 : -6%	-5%
> O=C(COc1ccc(Cl)cc1Cl)Nc1ccc(C(=O)OC2CCCCC2)cc1
 : -12%	7%
> N[C@@H](Cc1cc(I)c(Oc2cc(I)c(O)c(I)c2)c(I)c1)C(=O)O
 : -6%	-21%[11.5 µM]
> CC(=O)NNC(=S)NCC(C)C
 : 3%	5%
> O=C(NCCCNC(=O)c1ccc(Cl)cc1Cl)c1nc2ccccc2c(=O)[nH]1
 : -5%	24%
> COc1ccccc1NC(=O)c1cc2ccccc2cc1OCC(N)=O
 : -2%	17%

Next part (six carried over from the part before).
Values run as follows: StopGo RLuc	2A firefly
> Cc1ccc(Cl)cc1NC(=O)c1cc(=O)[nH]c2ccc(S(=O)(=O)N3CCOCC3)cc12
 : -6%	-5%
> O=C(COc1ccc(Cl)cc1Cl)Nc1ccc(C(=O)OC2CCCCC2)cc1
 : -12%	7%
> N[C@@H](Cc1cc(I)c(Oc2cc(I)c(O)c(I)c2)c(I)c1)C(=O)O
 : -6%	-21%[11.5 µM]
> CC(=O)NNC(=S)NCC(C)C
 : 3%	5%
> O=C(NCCCNC(=O)c1ccc(Cl)cc1Cl)c1nc2ccccc2c(=O)[nH]1
 : -5%	24%
> COc1ccccc1NC(=O)c1cc2ccccc2cc1OCC(N)=O
 : -2%	17%
> O=c1cc(CN2CCN(c3ccc(F)cc3)CC2)c2cc(O)ccc2o1
 : ?	?
> CC(=O)Nc1cccc(-c2nc(-c3ccccc3)no2)c1
 : -3%	143%[activator]
> COc1ccc(NC(=O)c2oc3ccccc3c2NC(=O)Cc2coc3c(C)c(C)ccc23)cc1
 : -2%	9%
> CN(Cc1ccsc1)C(=O)Cc1ccc(-c2ccccc2)cc1
 : 25%	20%
> CCCCN1CCN(C(=O)c2ccccc2OCc2nc(-c3ccc(C)cc3)no2)CC1
 : -16%	31%
> O=C(Nc1ccc(Cl)cc1C(F)(F)F)c1cccc(I)c1
 : 8%	23%
> CCOc1ccc(-n2c(SCC(=O)Nc3ccc4c(c3)OCCO4)nc3c([nH]c4ccccc43)c2=O)cc1
 : -16%	0%
> CC(C)CCNC(=O)CSCc1coc(-c2ccc(Cl)cc2)n1
 : ?	?
> Nc1ccc(Sc2ccccc2)c(Cl)c1
 : 10%	21%
> COc1ccc(C(=O)O)cc1S(=O)(=O)Nc1ccccc1SCC(F)(F)F
 : 40%[activator]	-11%
> Cc1cccc(CSc2nc3cccnc3n2Cc2ccc(C(=O)NCc3cccs3)cc2)c1
 : ?	-32%
> O=C(Nc1ccc(C(=O)N2CCN(c3cccc(Cl)c3)CC2)cc1)c1nsc2ccccc12
 : -3%	-42%
> Cc1ccc(Cl)cc1-n1ccc2c(cnc3nc(C(F)(F)F)nn32)c1=O
 : -1%	5%
> CCOc1ccc(NC(=O)C(=O)NCCc2csc(-c3ccc(F)cc3)n2)cc1
 : -9%	-9%
> O=C(Nc1ccccc1C(F)(F)F)c1nn(-c2ccc(Cl)cc2)ccc1=O
 : -13%	-3%
> Cc1cc(O)c(C(c2cccc(F)c2)N2CCN(c3ccccc3)CC2)c(=O)n1Cc1ccco1 (configuration not stated)
 : -5%	-33%
> COc1ccc(CCNC(=O)c2ccc3c(c2)c(C)c(C)n3Cc2ccc(F)cc2)c(OC)c1OC
 : -10%	-17%
> CCCOc1ccc(C(=O)NCc2coc(-c3cccs3)n2)cc1
 : 13%	7%
> COc1ccc(-c2cc(C(=O)Oc3ccc(Cl)cc3)c3ccccc3n2)cc1
 : 2%	0%
> COc1ccc(N2CCN(C(=O)c3cn(C)c4ccc(S(=O)(=O)N(C)C5CCCCC5)cc4c3=O)CC2)cc1
 : -10%	-12%
